# NPR1 antag: human Npr1 receptor antagonism; P16066; 76,000 tested, 1.6% active; HEK293 hNpr1 GloSensor cGMP, ANP-stimulated luminescence; Potency, µM (top dose mostly 46.3 µM), for inactives: at the highest dose activity change, negative = inhibition, hits mostly inhibitors; active = well fitted inhibition curve with a large enough effect; inconclusive = small, poorly fitted or top-dose-only effect; inactive = no such curve, though single readings can be large or run the other way;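 further: nearly all actives have a fitted effect of over 60% in size; nearly all hits also lower the signal before the agonist is added; a reference antagonist and vehicle were the controls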
# Target sequence (P16066 whole entry, looked up): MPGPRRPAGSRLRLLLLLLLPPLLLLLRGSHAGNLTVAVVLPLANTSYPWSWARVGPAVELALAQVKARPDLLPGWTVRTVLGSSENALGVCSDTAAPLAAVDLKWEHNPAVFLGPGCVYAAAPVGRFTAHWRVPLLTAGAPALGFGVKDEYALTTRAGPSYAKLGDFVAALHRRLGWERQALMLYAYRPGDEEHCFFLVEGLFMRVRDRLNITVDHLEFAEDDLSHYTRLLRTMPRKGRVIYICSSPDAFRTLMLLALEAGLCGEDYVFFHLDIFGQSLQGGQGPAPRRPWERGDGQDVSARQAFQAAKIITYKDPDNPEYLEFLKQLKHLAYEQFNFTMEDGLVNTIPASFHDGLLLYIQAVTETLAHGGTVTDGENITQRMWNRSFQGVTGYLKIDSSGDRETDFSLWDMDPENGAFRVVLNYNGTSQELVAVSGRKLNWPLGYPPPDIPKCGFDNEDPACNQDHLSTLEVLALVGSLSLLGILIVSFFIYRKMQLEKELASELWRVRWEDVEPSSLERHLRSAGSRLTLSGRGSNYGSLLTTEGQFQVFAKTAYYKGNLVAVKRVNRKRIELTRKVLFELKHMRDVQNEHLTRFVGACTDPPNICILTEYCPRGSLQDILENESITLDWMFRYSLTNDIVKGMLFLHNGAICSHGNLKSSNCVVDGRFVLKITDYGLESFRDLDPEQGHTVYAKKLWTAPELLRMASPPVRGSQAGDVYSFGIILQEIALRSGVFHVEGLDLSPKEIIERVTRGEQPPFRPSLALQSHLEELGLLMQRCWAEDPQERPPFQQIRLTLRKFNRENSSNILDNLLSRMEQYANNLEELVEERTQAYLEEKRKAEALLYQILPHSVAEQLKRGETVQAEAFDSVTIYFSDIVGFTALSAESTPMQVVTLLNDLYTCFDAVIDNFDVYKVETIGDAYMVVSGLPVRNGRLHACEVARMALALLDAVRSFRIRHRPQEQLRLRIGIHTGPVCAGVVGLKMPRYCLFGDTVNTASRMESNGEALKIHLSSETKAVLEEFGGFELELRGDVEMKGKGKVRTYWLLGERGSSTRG
#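 Compound pre-incubated 30 min at room temperature on GloSensor-loaded HEK293 cells stably carrying hNpr1 and the pGS-40F cGMP biosensor. Stimulation uses hNppA at 0.1 nM final; luminescence is taken at baseline and 20 min post-agonist.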
# * = called active by the depositor; ? = inconclusive; [ ] = dose if it differs, or a comment. On the % scale 0 is the no-effect control and ±100 the full control effect; potency means the concentration at half of the fitted maximal effect. Some of the compounds tested (hit frequency here may not be typical).
SMILES,NPR1 antag
CC(C)C1CN(C(=O)CN(C)C2CCNCC2)CCC(=O)N1CC1CC1 (stereo unspecified),8.4%
COCCN1CCCCCC(O)c2cc(C(=O)NCc3cc(F)cc(F)c3)ccc21 (stereo unspecified),-3.1%
Cc1ccc(CNC(=O)CCC[C@@H]2[C@H]3CCCN4CCC[C@@H](CN2Cc2ccccc2)[C@@H]34)o1,3.2%
COCCN1C(=O)[C@@H]2C[C@@H](CN2Cc2nccn2C)Oc2ccccc21,3.5%[70.6 µM]
CCCS(=O)(=O)N1CCC(Nc2nccnc2OCC)CC1,-3.0%
COc1ccc(-c2cc3nc4c(c(=O)n3[nH]2)CN(C(=O)c2ccc(Cc3c(C)noc3C)o2)CC4)cc1,-7.4%
O=C(NCc1ccc2c(c1)OCO2)c1cnc2c(c1)N(Cc1ccccc1)CCC2,4.4%[70.6 µM]
CS(=O)(=O)N1CCCC(C(=O)NCCCN2CCCc3ccccc32)CCNC(=O)CC1 (stereo unspecified),-0.6%
O=C(c1ccco1)N1CCN(C(=O)c2nnn3c2COC(c2ccc(Cl)cc2)C3)CC1 (stereo unspecified),-14.7%
Cc1nn2c(c1-c1ccccc1[S+](C)(=O)[O-])N(C(=O)Cc1ccccc1)CCC2,0.9%[70.6 µM]
Cc1ncsc1C(=O)N1CCCC(CCc2ccc(F)cc2F)C1 (stereo unspecified),-22.1%
O=C(Cn1c(=O)oc2ccccc21)N1CCCC(Cc2noc(-c3ccccc3)n2)C1 (stereo unspecified),6.5%
CS(=O)(=O)N1CCC(F)(c2nc(-c3ccccc3)no2)CC1,-23.2%
Cn1cc([C@@H](NC(=O)CCc2ccc(=O)[nH]n2)C2CC(O)C2)cn1 (stereo partly specified),-1.5%
COc1cccc(C(=O)N[C@H]2[C@H](O)[C@H](O)C[C@@H]2c2ccc(N3CCOCC3)nc2)c1,6.9%[70.6 µM]
O=C(Cc1ccc2c(c1)OCO2)N[C@H]1[C@@H]2CCO[C@@H]2[C@@H]1C1CCCC1,-1.0%
CNC(=O)c1noc([C@@H]2CC(F)(F)CN2C(=O)CC2=CCCCC2)n1,6.5%
O=C(C1=NO[C@@H]2CN(c3ccc(OC(F)(F)F)cc3)C[C@H]12)N1CCOCC1,-14.2%[70.6 µM]
O=C(NCCCO)c1ccc2c(c1)C1(CCN(CC3CC3)C1)CN2Cc1ccccc1 (stereo unspecified),0.9%[70.6 µM]
CCN1C(=O)C2(CCN(S(=O)(=O)c3cn(C)cn3)CC2)c2ccccc21,2.1%

# Seven entries from above, arranged by the number in NPR1 antag, smallest number first:
SMILES,NPR1 antag
CS(=O)(=O)N1CCC(F)(c2nc(-c3ccccc3)no2)CC1,-23.2%
Cc1ncsc1C(=O)N1CCCC(CCc2ccc(F)cc2F)C1 (stereo unspecified),-22.1%
COc1ccc(-c2cc3nc4c(c(=O)n3[nH]2)CN(C(=O)c2ccc(Cc3c(C)noc3C)o2)CC4)cc1,-7.4%
CS(=O)(=O)N1CCCC(C(=O)NCCCN2CCCc3ccccc32)CCNC(=O)CC1 (stereo unspecified),-0.6%
CCN1C(=O)C2(CCN(S(=O)(=O)c3cn(C)cn3)CC2)c2ccccc21,2.1%
Cc1ccc(CNC(=O)CCC[C@@H]2[C@H]3CCCN4CCC[C@@H](CN2Cc2ccccc2)[C@@H]34)o1,3.2%
CNC(=O)c1noc([C@@H]2CC(F)(F)CN2C(=O)CC2=CCCCC2)n1,6.5%

# 2 entries from above, with each value named:
Cn1cc([C@@H](NC(=O)CCc2ccc(=O)[nH]n2)C2CC(O)C2)cn1 (stereo partly specified)
  NPR1 antag: -1.5%

COc1cccc(C(=O)N[C@H]2[C@H](O)[C@H](O)C[C@@H]2c2ccc(N3CCOCC3)nc2)c1
  NPR1 antag: 6.9%[70.6 µM]

# The listing picks up; the three compounds before the break are reprinted first.
SMILES,NPR1 antag
O=C(C1=NO[C@@H]2CN(c3ccc(OC(F)(F)F)cc3)C[C@H]12)N1CCOCC1,-14.2%[70.6 µM]
O=C(NCCCO)c1ccc2c(c1)C1(CCN(CC3CC3)C1)CN2Cc1ccccc1 (stereo unspecified),0.9%[70.6 µM]
CCN1C(=O)C2(CCN(S(=O)(=O)c3cn(C)cn3)CC2)c2ccccc21,2.1%
Cc1nn(C(=O)CCCC(=O)N2CCC(Cc3nc(C4CCOCC4)no3)CC2)c2ccccc12,?
COc1ccc(S(N)(=O)=O)cc1C(=O)N1CCc2c(nc[nH]c2=O)C1,0.4%
Cc1ccc(-c2cc3c(=O)n(CCNC(=O)c4ccc(Cl)cc4)ccn3n2)cc1C,-11.4%
COc1ccc(CNC(=O)c2cc3c(n2C)CCN(Cc2ccc(F)cc2)C3)cc1,-25.6%
Cc1ccccc1C(=O)N1CCN(c2cc(-c3cccs3)[nH]n2)CC1,-3.7%
NC(=O)NCc1cn(C2CCN(C(=O)C3CCCCCC3)CC2)nn1,1.7%
CCCc1noc(-c2ccn3c(CNC(=O)c4cccc(N(C)C)c4)nnc3c2)n1,3.1%
O=C(NCC1Cn2cccc2CN1Cc1ccccc1)c1ccc2cc[nH]c2c1 (stereo unspecified),-11.7%
O=c1cc(-c2ccncc2)oc2c(-c3ccccc3F)nccc12,12.4%[70.6 µM]
CCOc1ccc(C2Cn3nnc(-c4nc(-c5ccccc5Br)no4)c3CO2)cc1 (stereo unspecified),-15.0%
Cc1noc(-c2cn(C3CCN(C(=O)c4ccc(F)c(F)c4)CC3)nn2)n1,3.0%
Clc1ccccc1C1Cn2nnc(-c3noc(-c4cc(C5CC5)[nH]n4)n3)c2CO1 (stereo unspecified),-1.6%
COc1cc(CNC(=O)[C@H]2CCC[C@H]2NC(=O)c2cnc(C)cn2)cc(OC)c1,0.8%
CC1=NS(=O)(=O)N(Cc2ccc(C)cc2)C=C1C(=O)O,-2.1%
CCS(=O)(=O)N1CCCC(C(=O)Nc2ccccc2Oc2cccnc2)C1 (stereo unspecified),-0.1%
Cc1cc(C(=O)N2C[C@@H](COCC3CC3)[C@H](c3ccccn3)C2)n[nH]1,2.2%
CCOCCNc1ncnc2c1CN(c1ccc(C)cc1)C(=O)CN2C,-1.1%
O=C(c1ccsc1)N1CC(c2noc(C3CCCN3CC3CC3)n2)C1 (stereo unspecified),6.3%
COc1ccc(CN2CCC3(CC2)CN[S+](=O)([O-])c2ccccc2N3)cc1,0.0%
N#Cc1ccc(S(=O)(=O)N2C[C@@H](Oc3cccnc3)C[C@H]2C(=O)N2CCCC2)cc1,-0.6%
Cc1ccc(CNC(=O)N2CCCN(C)c3ccccc32)cc1,-12.2%
O=C1CCC(C(=O)N2CCN(c3ccncc3)CC(O)C2)=NN1 (stereo unspecified),9.4%
CCc1nc(-c2c3n(c(=O)n(CC(=O)NCc4ccc(C)cc4)c2=O)CCCC3)no1,6.0%
CC(=O)N1CCCC1c1nc(C2CN(S(=O)(=O)c3c(C)noc3C)C2)no1 (stereo unspecified),16.6%
Cc1cccc(OCCc2noc(C3CCCCN3C(=O)c3ccccn3)n2)c1 (stereo unspecified),-2.3%
CN(C)C(=O)c1n[nH]c2c1CN(C(=O)c1ccc(Br)cc1)CC2,1.1%
CN1CC2(CCN(C(=O)c3cccc(C#N)c3)CC2)CC1C(=O)N1CCOCC1 (stereo unspecified),3.1%
CCCCSc1nc(N)cc(N2CCCC(OCc3cccnc3)C2)n1 (stereo unspecified),-19.3%
CN1C(=O)c2cccn2CC1C(=O)NCc1ccco1 (stereo unspecified),0.8%
COCCN1CCCCC(CC(=O)Nc2ccc(N3CCOCC3)cc2)C1=O (stereo unspecified),4.9%
Cc1ncccc1C(=O)N1CCC2(CCN(Cc3ccccn3)CC2)C(CO)C1 (stereo unspecified),3.0%
CN(C)c1ccc(CN2CCC(c3nc4ccncc4[nH]3)C2)cc1 (stereo unspecified),-9.1%[70.6 µM]
CN(C)c1ccc(-c2nnc([C@H]3CCN(CC4CCCCC4)C3)o2)cc1,0.1%[70.6 µM]
O=C(C1CCOCC1)N1CC(CO)C2(CCNCC2)C1 (stereo unspecified),15.1%
CCCc1noc(-c2ccn3c(CNC(=O)c4cc(Cl)ccc4F)nnc3c2)n1,-2.3%
COc1ccc(CC(=O)N2CCC3(CC2)CC(O)CCO3)cc1Cl (stereo unspecified),1.5%
COCCc1ccc(OCc2ccccc2-c2cc(C)n[nH]c2=O)cc1,-2.4%
CCNC(=O)N1CCCC1c1noc(CCC(=O)NCC2CCCCC2)n1 (stereo unspecified),1.6%
COc1ccccc1CC(=O)NCCn1ccn2nc(-c3ccc(C)c(C)c3)cc2c1=O,-4.6%
COc1ccc(C)cc1NC(=O)C1N(C(C)C)C(=O)C12CCCC2 (stereo unspecified),-0.9%
CN1C(=O)C(CC(=O)N2CCCC2)Sc2ncccc21 (stereo unspecified),-2.0%
Cc1ncsc1C(=O)N1CCC2(CC1)OC(=O)N(Cc1ccccc1F)C2(C)c1ccccc1 (stereo unspecified),2.1%
COC(=O)[C@H]1CN(C(=O)NC(C)C)CCN1C(=O)c1cccnc1,5.8%[70.6 µM]
COCCNC(=O)[C@H]1C[C@H](Oc2ccccc2)CN1S(=O)(=O)c1cccc(OC)c1,4.4%
CCC(C)(C)C(=O)N1CC2CC(C1)[C@H]1CCCC(=O)N1C2 (stereo partly specified),5.5%
O=C(c1ccc(N2CC3CC(C2)[C@H]2CCCC(=O)N2C3)nc1)N1CC=C(c2ccccc2)CC1 (stereo partly specified),0.3%
Cc1ncc2c(c1CNC(=O)c1ccc3n[nH]nc3c1)CCNC2,3.3%
O=C(c1ccc2c(c1)OCO2)N1CCC2(CC1)NC(=O)N(c1ccc(F)cc1)N2,4.1%
CCCNC(=O)N1CCCCCCNC(=O)[C@@H]2CCC[C@@H]21,-5.2%
CCC1=C(C(=O)OC)C(c2cccc(C)c2)N2C(CC(=O)N3CCCCC3C)=CSC2=N1 (stereo unspecified),-19.4%
O=C(Nc1cccc(Cl)c1)C1CCCN(c2nc3ncccc3o2)C1 (stereo unspecified),-9.5%
Cc1ccsc1C(=O)N1CCOc2ccc(CN3CCc4ccccc4C3)cc2C1,-29.3%
CCOC(=O)C1=CN(CC(=O)Nc2cccc(C)c2)S(=O)(=O)N=C1C,-2.5%
CCCN(Cc1cccc(OC)c1)C(=O)C(c1cccnc1)N1CCOCC1 (stereo unspecified),-12.8%
CCC[C@H]1CN(CCS(C)(=O)=O)C[C@@H]1NC(=O)C1CCOCC1,9.8%
COc1ccc(-c2nnc3n2CCN(C(=O)C2CCCC2)C3)cc1,2.3%[70.6 µM]
CCOc1ccccc1N1CCN(C(=O)[C@H]2CCC[C@H]2NC(=O)c2ccncc2)CC1,-5.3%
CCC(=O)Nc1ccc(C2(C(=O)N(C)C)CCC2)cc1,-0.5%
Cc1noc(C)c1S(=O)(=O)N1CCC2(CC1)CCC(O)(CN(C)C)CC2,6.9%
CC(=O)N1CCC(N2C[C@@H](CO)[C@H](NC(=O)c3ccccc3)C2)CC1,0.0%

# Continuation:
SMILES,NPR1 antag
CSCC(=O)N[C@H]1CCN2C(=O)c3ccccc3NC(=O)[C@@H]2C1,-3.3%[70.6 µM]
COc1cc(CNC(=O)[C@@H]2C[C@@H](c3cccc(C(F)(F)F)c3)N(C)C2)cc(OC)c1,-3.1%[70.6 µM]
O=C(NCc1cccnc1)c1ccc(N2CC3CC(C2)[C@H]2CCCC(=O)N2C3)nc1 (stereo partly specified),-2.8%
O=C(Cc1ccccc1)N1CC(Oc2ccc(-c3nc(-c4ccccc4)no3)cc2)C1,?
CC(C)C(=O)N1CCC(Oc2cccnc2)C1 (stereo unspecified),-15.5%
Cc1ccc(NC(=O)c2cc(NC(=O)C3CC3)cc3nc(C)ccc23)cc1,3.6%
O=C(Cc1ccccc1F)N1CCC2(CCCCO2)CC1,-0.3%
COCCO[C@H]1C(=O)N(C2CCN(C(=O)c3ccco3)CC2)[C@H]1c1ccncc1,10.4%
O=C(c1ccsc1)N1CCCC(c2noc(COc3ccccc3)n2)C1 (stereo unspecified),-7.0%
COc1ccc(-c2noc([C@@H]3Cc4nc[nH]c4CN3Cc3ccc(C)cc3)n2)cc1,-24.9%[70.6 µM]
Cc1onc(C(=O)NC2CCc3nn(C)c(=O)n3CC2)c1COc1ccccc1 (stereo unspecified),7.5%
CCC(=O)N(C1CCOCC1)C1CCN(S(=O)(=O)c2cccnc2)CC1,4.5%
CC(=O)Nc1ccc(C(=O)N2CCC3(CC2)N=C(c2ccc(Br)cc2)NO3)cc1,12.6µM*
CCc1ccccc1NC(=O)N1CCC(Oc2ncccc2NC)C1 (stereo unspecified),-5.5%
CS(=O)(=O)N1CCC(C2CCN(Cc3ccsc3)C2)CC1 (stereo unspecified),3.4%
COC[C@@H]1CN(Cc2cccc(OC)c2OC)C[C@H]1c1ccncc1,-17.2%
COc1ccc(NC(=O)N2CCCC2c2noc(COc3ccc(F)cc3)n2)cc1OC (stereo unspecified),-2.7%
Cc1ccc(CC(=O)NCc2nnc3c(-c4nc(C5CC5)no4)cccn23)cc1,2.7%
Cc1ccc(NC(=O)Cn2c(N3CCN(c4ccccc4)CC3)nc(C)cc2=O)cc1,1.8%
CC(C)C1c2nccn2CCCN1C(=O)c1cocn1 (stereo unspecified),-3.4%
O=C(Nc1ccccc1Oc1cccnc1)C1CCCN1C(=O)CC1CCCC1 (stereo unspecified),-1.1%
Clc1cccc(CN2CCOC[C@H](Oc3ccccc3)C2)c1,0.1%[70.6 µM]
Cc1cn2nc(C(=O)N3CCC(NC(=O)c4ccccc4F)CC3)cc2c(=O)[nH]1,10.0%
O=c1[nH]c(N2CCOCC2)nc2c1CCN(Cc1cc(F)c(F)c(F)c1)CC2,-12.2%
CNC(=O)[C@@H](c1ccccc1)N1CCC[C@H]1C(=O)NCC1CC1,2.3%[70.6 µM]
O=C(NCCN1CCOCC1)[C@H]1C[C@@H](O)[C@H](O)[C@@H]2N=C(Nc3ccc(-n4cccn4)cc3)S[C@@H]21,-0.2%
O=C(CCCc1ccccc1)NCC(=O)N1CCN(c2ccccn2)CC1,-2.0%
COCCc1noc([C@@H]2CN(Cc3ccc4[nH]ccc4c3)C[C@H]2CO)n1,-3.6%
O=C(NCc1ccccc1C(F)(F)F)C1CCCN(c2cnn(Cc3ccccc3)c(=O)c2)C1 (stereo unspecified),-19.4%
